D2 agonist: human D2 receptor agonism in beta-arrestin assay. DiscoveRx PathHunter D2 beta-arrestin, luminescence, 90 min; 100% = 57 uM dopamine signal. activation, % (concentration not given with the values). hit rate 0.084% among 360,000. AID 624465; in the data active = activation above about 40%; inconclusive = about 15% to 40%; inactive = below about 15%; further: compound concentration not given in the record; the text of the record calls up to 30% inactive
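DiscoveRx PathHunter D2 beta-arrestin cells (2,100/well) attached overnight, then compound-stimulated 90 min at 37 C in HBSS/10 mM HEPES/0.1% Tween-20 buffer; beta-galactosidase complementation read by luminescence after 1 h at ambient temperature. Dopamine 57 uM final (EC100) as control.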
D2 potentiator: potentiates the human D2 dopamine receptor allosterically; P14416; DiscoveRx D2 beta-arrestin cells, luminescence, 90 min; 100% = 57 uM dopamine signal; potentiation, % (no concentration beside the values); hit rate 0.23% among 360,000; active = potentiation of 50% or more; inconclusive = 30% to 50%; inactive = 30% or less;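 further: compound concentration not given in the record; tested on top of an EC20 dose of dopamine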
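PathHunter D2 cells, attached overnight at 37 deg C, received compound in DMSO plus dopamine at EC20 (50 nM final) for 90 min at 37 deg C. Beta-arrestin recruitment was read as luminescence after 1 h with detection reagent at ambient temperature.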
TRPV1 potentiator: human TRPV1 potentiation; Q8NER1; TRPV1-expressing cells, Fluo-8 calcium influx, capsaicin EC20 potentiation; host cell line not named in the record; control for the full effect not named in the record; potentiation, % at 8.33 µM; hit rate 0.02% among 320,000; AID 540277; active means potentiation above 80%; inconclusive means 30% to 80%; inactive means below 30%; further: 0% is about no effect
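TRPV1-expressing cells were cultured overnight at 35.5C and loaded with Fluo-8 calcium dye for 40 to 90 min at room temperature. After a 10 s baseline, compound was added and calcium influx was read kinetically for 3 min (ex 480/em 520 nm).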
PINK1 modulator: modulators of PINK1 expression; PINK1 immunofluorescence, high-content cytometry, 24 h; Potency, µM (highest dose often 76.6 µM), without a hit: at the highest dose activation (PINK1 increase), usual class: activators; hit rate 0.2% among 410,000; active = well fitted activation curve with a large enough effect; inconclusive = small, poorly fitted or top-dose-only effect; inactive = flat fitted curve, though single readings scatter; cell line not stated here;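 further: potency means the concentration at half of the fitted maximal effect; % of control where 0% means no effect; nearly all actives have a fitted effect of over 65% in size; a mitochondrial uncoupler was the plate control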
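Stable cell line treated 24 h with compounds at 5 concentrations (CCCP controls), then fixed and immunostained for PINK1 plus nuclear and cell stains; PINK1 immunofluorescence quantified by laser-scanning microplate cytometry.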
Six1-Eya2 blk: blocks human Six1 binding to Eya2; hit rate 0.56% among 360,000; activity change, % (test concentration not listed); Q15475+O00167; AID 651725; AlphaScreen GST-Six1/His-Eya2 binding, biochemical; hits give low values; control for the full effect not named in the record; in the data active = activity change below about -65%; inconclusive = about -30% to -65%; inactive = above about -30%; further: on the % scale 0 is the no-effect control and ±100 the full control effect; compound concentration not given in the record
Target sequence (O00167 whole entry, looked up): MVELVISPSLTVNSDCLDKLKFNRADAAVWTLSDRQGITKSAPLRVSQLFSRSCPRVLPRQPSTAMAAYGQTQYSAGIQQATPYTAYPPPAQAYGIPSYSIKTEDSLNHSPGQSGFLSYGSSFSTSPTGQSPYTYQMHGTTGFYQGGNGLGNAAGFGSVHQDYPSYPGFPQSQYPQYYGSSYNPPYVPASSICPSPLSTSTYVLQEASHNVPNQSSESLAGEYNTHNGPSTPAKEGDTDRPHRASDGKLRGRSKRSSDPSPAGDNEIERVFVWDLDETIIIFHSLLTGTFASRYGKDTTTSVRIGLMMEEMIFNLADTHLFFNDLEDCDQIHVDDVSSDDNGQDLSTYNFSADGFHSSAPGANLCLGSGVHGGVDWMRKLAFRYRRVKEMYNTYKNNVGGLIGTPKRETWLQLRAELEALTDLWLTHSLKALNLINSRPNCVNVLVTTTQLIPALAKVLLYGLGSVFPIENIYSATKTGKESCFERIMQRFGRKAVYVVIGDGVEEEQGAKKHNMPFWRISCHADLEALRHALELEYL
Target sequence (Q15475 whole entry, looked up): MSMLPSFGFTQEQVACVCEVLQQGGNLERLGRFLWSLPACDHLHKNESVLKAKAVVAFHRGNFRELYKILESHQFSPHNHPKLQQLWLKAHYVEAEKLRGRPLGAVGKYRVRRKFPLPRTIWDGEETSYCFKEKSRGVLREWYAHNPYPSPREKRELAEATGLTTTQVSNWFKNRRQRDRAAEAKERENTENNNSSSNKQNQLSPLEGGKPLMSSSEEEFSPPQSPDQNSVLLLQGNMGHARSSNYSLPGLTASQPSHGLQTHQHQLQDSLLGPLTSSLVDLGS
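AlphaScreen luminescence read after one hour at 37 °C in darkness. Pin-transferred compounds met GST-Six1 and His-Eya2 protein (5X stock 250 nM/500 nM) plus glutathione donor and Ni-chelate acceptor beads (5X, 50 ug/mL).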
CtBP-E1A inh: CtBP/E1A binding inhibition; AlphaScreen GST-E1A/His-CtBP binding, 1536-well; hits give low values; control for the full effect not named in the record; activity change, % (no concentration beside the values); hit rate 0.49% among 340,000; in the data active means activity change below about -65%; inconclusive means about -30% to -65%; inactive means above about -30%; further: on the % scale 0 is the no-effect control and ±100 the full control effect; compound concentration not given in the record
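Protein mix (5X: 125 nM each GST-E1A, His-CtBP) was incubated with pinned compound 2 h at 37 deg C in dark, in 50 mM Tris pH 8.0 buffer with 300 mM NaCl. Glutathione donor and nickel acceptor beads followed; AlphaScreen signal read after 1 h.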
Sfp inh: Sfp phosphopantetheinyl transferase inhibition; Q9F4F7; hit rate 3.5% among 310,000; Biochemical Sfp PPTase activity, qHTS; Potency, µM, without a hit: max response, negative = inhibition, actives largely listed as inhibitors; active means well fitted inhibition curve with a large enough effect; inconclusive means small, poorly fitted or top-dose-only effect, or another doubt; inactive means no such curve, though single readings can be large or run the other way;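 further: the enzyme is Sfp with the accession as filed and its product quenches rhodamine fluorescence; potency means the concentration at half of the fitted maximal effect; 0% = enzyme reaction without inhibitor and -100% = no enzyme wells; top concentration of the series not given in the record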
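Reaction rates are the 30-min fluorescence difference (ex 525, em 598 nm) in wells containing 15 nM Sfp, 5 uM rhodamine-CoA and 12.5 uM BHQ-2-YbbR at pH 7.6 with 10 mM MgCl2.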
Active calls of the source: *; ? = inconclusive; . = not tested or not shown; [ ] = dose if it differs, or a comment.

SMILES	D2 agonist	D2 potentiator	TRPV1 potentiator	PINK1 modulator	Six1-Eya2 blk	CtBP-E1A inh	Sfp inh
CCN(CC)C(=O)c1ccc(N(Cc2ccccc2)S(C)(=O)=O)cc1	-3.9	1	3	1.0%	-3	11	30%
CCN1CCc2ccccc2C1	1.4	-26	-6	0.8%	5	-10	21%
COc1cc2c(cc1O)[C@@H]1Cc3ccc(OC)c(O)c3CN1CC2	9.0	-5	0	8.4%	-2	?	.
O=C(Cn1c(=O)n(CC2CS2)c2ccccc21)N1CCCCCC1 (configuration not stated)	4.7	7	0	3.0%	-1	3	8%
O=C(N/N=C/c1c(O)n(CCC2=CCCCC2)c(=S)[nH]c1=O)c1ccccc1	-5.3	-29	11	1.3%	-30	-28	8%
CN1C(=O)CN=C(c2ccc(Cl)cc2)c2cc(Cl)ccc21	-1.9	0	11	-0.4%	-1	-1	-24%
CC1(C)NCCN2C(=O)CSC21 (configuration not stated)	-3.2	-6	-2	-1.9%	2	4	23%
CN1C(=O)C(=Cc2ccc(OCCN(C)c3ccccn3)cc2)C(=O)N(C)C1=O	-1.9	-2	15	3.0%	0	9	-9%
O=c1c2ccccc2nc(/C=C/c2ccc(O)c(O)c2)n1-c1ccccc1	5.3	1	-1	3.7%	0	.	-15%
CCOC(=O)C1=CC(=C2C(=O)N(CC)C(=S)N(CC)C2=O)c2ccccc2O1	-0.9	5	7	-1.3%	-8	0	50µM*

Overlap with the part before: two compounds, followed by the next part.
SMILES	D2 agonist	D2 potentiator	TRPV1 potentiator	PINK1 modulator	Six1-Eya2 blk	CtBP-E1A inh	Sfp inh
O=c1c2ccccc2nc(/C=C/c2ccc(O)c(O)c2)n1-c1ccccc1	5.3	1	-1	3.7%	0	.	-15%
CCOC(=O)C1=CC(=C2C(=O)N(CC)C(=S)N(CC)C2=O)c2ccccc2O1	-0.9	5	7	-1.3%	-8	0	50µM*
C[Se]C[C@@H](N)C(=O)O	3.1	0	6	0.5%	-4	4	.
Cc1cc(/C=C2\C(=O)NC(=O)N(c3ccc(Cl)cc3)C2=O)c(C)n1-c1sc2c(c1C#N)CCCC2	-1.1	-6	4	2.2%	-1	.	32µM*
Cc1cc(OCC(=O)NCC(O)c2ccccc2)c2c3c(c(=O)oc2c1)CCC3 (configuration not stated)	-1.4	2	-5	1.9%	-1	5	5%
CNS(=O)(=O)c1ccc(N=Cc2c(O)n(-c3ccccc3)c(=O)[nH]c2=O)cc1	-3.5	-9	7	1.2%	-10	-12	-15%
COc1ccc(CN2CCCC(C(=O)c3cccc(Cl)c3)C2)cc1 (configuration not stated)	-7.5	-75	-16	?	6	.	-3%
C[C@]12CCCCC1=CC(=O)C1C2CC[C@@]2(C)C1C[C@@H](F)[C@@H]2O (some centres not stated)	8.0	-1	.	0.1%	-2	7	.
CN1CCN(Cc2cc3c(cc2[N+](=O)[O-])OCO3)CC1	-3.2	-14	-15	1.3%	1	-11	0%
CN(C)C(=O)Oc1ccc(C(=O)c2ccccc2)cc1	-1.0	8	4	.	0	-6	4%
N=Cc1c(O)n(-c2cccc(Cl)c2)c(=O)[nH]c1=O	-3.9	2	-15	0.9%	5	8	16%
Cc1cccc(N2C(=O)NC(=O)C3(Cc4cc(C)ccc4N(C)C3)C2=O)c1 (configuration not stated)	0.1	-4	3	-1.6%	-1	2	-7%

Quoted at random: 2 records from the list, in no set order.
SMILES	D2 agonist	D2 potentiator	TRPV1 potentiator	PINK1 modulator	Six1-Eya2 blk	CtBP-E1A inh	Sfp inh
Cc1cc(OCC(=O)NCC(O)c2ccccc2)c2c3c(c(=O)oc2c1)CCC3 (configuration not stated)	-1.4	2	-5	1.9%	-1	5	5%
CN1CCN(Cc2cc3c(cc2[N+](=O)[O-])OCO3)CC1	-3.2	-14	-15	1.3%	1	-11	0%

(cont.)
SMILES	D2 agonist	D2 potentiator	TRPV1 potentiator	PINK1 modulator	Six1-Eya2 blk	CtBP-E1A inh	Sfp inh
COc1cccc(N2C(=O)NC(=O)/C(=C\c3ccc([N+](=O)[O-])s3)C2=O)c1	-0.1	.	-3	1.3%	?	?	32µM*
CCCCn1c(O)c(C=NCCCN(CC)CC)c(=O)[nH]c1=O	0.2	-9	?	0.1%	12	5	5%
CC(=O)O[C@H]1C[C@@H]2OC3C=C(C)CCC3(C)[C@@]1(C)[C@@]21CO1 (some centres not stated)	-6.0	-20	.	-7.2%	8	-2	.
CN1CCN(c2ccc([N+](=O)[O-])c(N3CCCCC3)c2)CC1	-3.5	-14	-5	0.8%	-7	0	2%
COc1ccc(Br)cc1CNCCc1cccc(Cl)c1	-7.1	-35	15	12%	5	.	-26%
CCn1c(=O)n(CC(=O)N2CCC3(CC2)OCCO3)c(=O)c2ccccc21	1.0	1	-22	-1.7%	4	2	1%
CCOP(=S)(NN(Cc1ccccc1)C(=O)c1ccccc1)OCC	-2.6	-2	-14	-2.2%	-1	6	7%
Cc1cccc(N2C(=O)NC(=O)/C(=C\c3cnc(-c4ccccc4)nc3)C2=O)c1	0.3	-20	-5	-0.3%	-4	19	?
COc1ccc(NC(=O)CN2C3CCC2CC(O)(c2cccnc2)C3)cc1OC (configuration not stated)	-6.6	-13	.	0.1%	1	5	1%
O=C(c1cc([N+](=O)[O-])ccc1N1CCNCC1)N1CCOCC1	-0.2	2	-11	-0.3%	2	1	7%
Cc1ccc(C)c(OCc2cc(C(=O)N3C[C@H]4C[C@@H](C3)c3cccc(=O)n3C4)no2)c1	2.3	9	0	0.7%	0	6	-5%
O=C(NCCN1CCC2(CC1)C(=O)NCN2c1cccc(F)c1)c1ccc2ccccc2c1	.	.	.	3.2%	-17	-16	.
O=C(O)CCn1cc(C=C2C(=O)NC(=S)NC2=O)c(-c2cc3ccccc3oc2=O)n1	-3.1	-12	-1	-0.9%	-23	0	10µM*
Oc1cc2c(cc1CN1CCN(c3ccccc3)CC1)CCC2	-0.7	-40	-9	-2.9%	-8	-15	7%
CC(C)Cc1[nH]c(=O)c(C#N)c2c1CCC2	-1.0	-8	12	-1.7%	4	6	0%
C[C@H](CO)N1C[C@H](C)[C@H](CN(C)C(=O)Oc2ccccc2)OCc2cnnn2CCCC1=O	-11	3	.	-0.5%	8	0	.
CCC1(OC(=O)CN)C(=O)OCc2c1cc1n(c2=O)Cc2cc3ccccc3nc2-1 (configuration not stated)	-3.0	-9	20	0.2%	-2	-2	10%
CC12CCC3C(CCC4(O)CC(O)CCC34C=NO)C1(O)CCC2C1=COC(=O)C1 (configuration not stated)	1.9	.	.	-0.8%	7	-4	.
CCC(C)n1c(O)c(C=NC(C)c2ccccc2)c(=O)[nH]c1=S (configuration not stated)	5.3	-1	-1	-1.1%	-5	-1	-4%
COC(=O)C1=C(c2ccccc2OCc2ccccc2)C[C@@H]2CC[C@H]1N2C(=O)NCc1cccc(C(F)(F)F)c1	-4.2	-9	7	-0.2%	-10	-1	.
CCCCn1c(C)c(C(=O)OCC)c2c(CN3CCOCC3)c(O)ccc21	5.4	-13	0	4.5%[38.3 µM]	-5	-12	-21%
O=c1[nH]c(=O)n(Cc2ccco2)c(O)c1C=NCc1cccs1	0.2	-1	-7	-1.8%[38.3 µM]	-3	-3	50µM*
Cc1ccc(C)c(-n2c(C)nc3ccccc3c2=O)c1	-3.4	-15	11	1.2%	1	.	1%
CCOc1cccc(N2C(=O)/C(=C/c3ccco3)C(=O)NC2=S)c1	1.3	-3	-5	1.1%	-29	.	35µM*
COC(=O)C1=C(c2cccc(OC)c2OC)C[C@@H]2CC[C@H]1N2C(=O)NCc1ccc(F)cc1	-1.6	-4	.	0.4%	0	6	.
COC(=O)C1=C(c2ccc(F)cc2F)C[C@@H]2CC[C@H]1N2C(=O)NCC1CC1	-1.2	-4	-1	0.0%	6	.	.
O=S1(=O)CCN(CCc2c[nH]c3ccccc23)CC1	-1.0	2	-6	1.4%	4	15	24%
COC(=O)C1=Nc2ccccc2/C1=C\c1c(O)n(-c2ccc(Br)cc2)c(=O)[nH]c1=O	-0.5	-24	26	0.3%	-8	7	45µM*
CCN1c2nc3ccccn3c(=O)c2CC2(C(=O)N(C)C(=O)N(C)C2=O)C1C (configuration not stated)	-1.3	-8	13	3.7%[38.3 µM]	2	-1	7%
CCCCCn1c(=O)c(C(=O)Nc2ncccc2C)c(O)c2ccccc21	2.8	-1	7	-0.8%	0	1	33%[activator]
Cc1cccc(N2C(=O)NC(=O)/C(=C\c3cc(C)n(-c4sc5c(c4C#N)CCCC5)c3C)C2=O)c1C	4.7	0	6	-0.2%	-15	-13	35µM*
C=CCn1c(O)c(C(CC)=NCCc2ccccc2)c(=O)[nH]c1=O	-1.3	-5	3	.	-16	-12	4%
COc1ccccc1-n1c(-c2ccccc2)nc2ccccc2c1=O	-4.1	-18	-2	1.3%	15	0	4%
CCOC(=O)C1=C(N)OC2=C(C(=O)CCC2)[C@]12C(=O)N(CC(N)=O)c1ccccc12	-3.6	-1	-7	2.7%	-1	-5	11%
O=c1c2ccccc2nc(CN2CCOCC2)n1-c1ccccc1F	-1.5	1	-2	-0.8%	5	10	11%
CCN1CCN(c2nc3ccccc3s2)CC1	-1.4	-17	-2	-0.7%[38.3 µM]	0	3	10%
Nc1ccc(Cc2ccc(N)cc2)cc1	0.4	-3	.	1.4%	-2	3	.
Cc1nc2ccccc2n1C1CCN(Cc2nnnn2CCc2ccccc2)CC1	12	5	16	0.5%	-1	4	-14%
CC1=CC(=C2C(=O)NC(=S)NC2=O)C=C(C(F)(F)F)N1Cc1ccccc1	-0.2	0	0	3.5%	-3	1	8%
CC(Cc1cccs1)NCc1ccccc1 (configuration not stated)	-3.6	-21	30	-0.1%	11	-2	-6%
O=C(Nc1ccccc1)OC1CN=C(N[N+](=O)[O-])NC1 (configuration not stated)	0.7	-7	-4	1.3%	8	11	16%
COc1cccc(-n2c(/C=C/c3ccc(O)c(O)c3)nc3ccccc3c2=O)c1	13	16	0	1.6%	7	-8	-10%
O=C(COc1ccc2ccccc2c1)N1CCN(Cc2ccncc2)CC1	-0.5	8	5	-0.3%	-5	0	-3%
CN(C)C(=O)Oc1ccc([N+](=O)[O-])cc1	1.3	-5	-22	0.3%	-1	2	10%
O=C1NCN(c2ccccc2)C12CCN(C(c1cccc3ccccc13)c1nnnn1C1CCCCC1)CC2 (configuration not stated)	-2.6	.	.	0.7%	-16	0	.
C=CCn1c(O)c(C(C)=O)c(=O)[nH]c1=O (tested in a mixture with another compound)	-3.7	-4	-1	2.5%	15	0	-2%
CC1=NN(Cc2c[nH]c3ccccc23)C(C)(C)C1	3.7	-4	12	0.5%	0	-3	9%
CCOP(=O)(OCC)c1cc(CC)ccc1O	-1.1	-1	.	-0.5%	-2	11	19%

A portion of the library, so the mix of outcomes need not match the whole.
